# Compound activity deposited in PubChem BioAssay by National Center for Advancing Translational Sciences (NCATS).
# PLK1 PBD block: qHTS for Inhibitors of PLK1-PDB (polo-like kinase 1 - polo-box domain): Primary Screen. Plk1 PBD binding of FITC phosphopeptide, fluorescence polarization. Potency, µM, for the others: max response, negative = inhibition, most hits filed as inhibitors. actives 2.8% (n = 360,000). AID 720504, 2013; further: potency means the concentration at half of the fitted maximal effect; series mostly up to about 57 µM; on the % scale 0 is the no-effect control and ±100 the full control effect; nearly all actives have a fitted effect of over 65% in size
# Target sequence (P53350 whole entry, looked up, the tested form may be a part): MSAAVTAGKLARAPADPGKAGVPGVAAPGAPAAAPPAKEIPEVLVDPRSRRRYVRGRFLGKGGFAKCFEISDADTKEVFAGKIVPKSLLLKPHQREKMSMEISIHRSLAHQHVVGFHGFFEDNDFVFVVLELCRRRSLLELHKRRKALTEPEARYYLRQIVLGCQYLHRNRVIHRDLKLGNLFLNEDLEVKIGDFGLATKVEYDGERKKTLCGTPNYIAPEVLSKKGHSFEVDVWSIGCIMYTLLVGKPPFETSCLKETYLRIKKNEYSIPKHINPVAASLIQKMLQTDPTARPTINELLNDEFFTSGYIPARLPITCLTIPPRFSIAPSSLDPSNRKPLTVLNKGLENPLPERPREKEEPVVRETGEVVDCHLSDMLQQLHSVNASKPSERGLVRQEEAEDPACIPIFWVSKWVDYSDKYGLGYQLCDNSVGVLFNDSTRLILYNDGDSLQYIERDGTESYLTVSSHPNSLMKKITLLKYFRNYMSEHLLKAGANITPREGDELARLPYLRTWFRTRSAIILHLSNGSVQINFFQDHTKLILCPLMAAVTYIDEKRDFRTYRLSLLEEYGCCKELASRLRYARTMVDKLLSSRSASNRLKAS
# PI5P4K alpha inh: qHTS for Inhibitors of phosphatidylinositol 5-phosphate 4-kinase (PI5P4K) | PI5P4Kalpha enzyme, ADP-Glo luminescence, 60 min; active compounds read low | max response, % | actives 1.2% (n = 330,000) | AID 652105, 2013; active means max response of -50% or lower; inconclusive means between -30% and -50%; inactive means -30% or higher; further: value at the top dose of about 77 µM; on the % scale 0 is the no-effect control and ±100 the full control effect
# Target sequence (P48426 whole entry, looked up): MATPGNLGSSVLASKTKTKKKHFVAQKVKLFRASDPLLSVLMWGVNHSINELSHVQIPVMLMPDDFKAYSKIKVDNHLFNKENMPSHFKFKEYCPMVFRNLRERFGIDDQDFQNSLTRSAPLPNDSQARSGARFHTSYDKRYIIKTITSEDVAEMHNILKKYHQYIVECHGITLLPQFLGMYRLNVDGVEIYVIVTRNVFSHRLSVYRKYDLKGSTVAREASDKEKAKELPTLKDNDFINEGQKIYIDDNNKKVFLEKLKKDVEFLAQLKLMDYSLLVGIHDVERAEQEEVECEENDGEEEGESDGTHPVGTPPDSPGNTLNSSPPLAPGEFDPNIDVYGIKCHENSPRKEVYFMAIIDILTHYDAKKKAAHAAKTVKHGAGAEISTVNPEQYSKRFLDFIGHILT
#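 Luminescence from ADP-Glo served as readout of PI5P4Kalpha activity in a qHTS format. Reaction: enzyme, substrate, compound, ATP at 5 microM final, 60 min at RT.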
# Mm-Cpn inhibitor: Inhibitors of TCP-1 ring complex (TRiC) of Methanococcus maripaludis (MmCpn): qHTS; Chaperonin Mm-Cpn (Methanococcus maripaludis); purified Mm-Cpn ATPase, ADP Transcreener TR-FRET; Potency, µM (top dose mostly 76.9 µM), without a hit: at the top dose activity, negative = inhibition, actives largely listed as inhibitors; actives 0.031% (n = 330,000); AID 504842, 2011; further: potency means the concentration at half of the fitted maximal effect; on the % scale 0 is the no-effect control and ±100 the full control effect; nearly all actives have a fitted effect of over 80% in size
#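 Inhibition of chaperonin ATP hydrolysis is measured as reduced ADP production, detected by competitive TR-FRET in which signal falls with ADP. Final enzyme 25 nM and ATP 10 uM, reacted 30 min at 37°C.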
# CCT chaperon mod: High-Throughput Screening for Modulators of Cytosolic Chaperonin Activity; actives 0.3% (n = 360,000); purified chaperonin ATPase assay, HTRF ADP detection, 30 min; activity change, % (no concentration beside the values), hits read low; in the data active means activity change below about -30%; further: on the % scale 0 is the no-effect control and ±100 the full control effect
#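 ATPase activity: ADP formed was measured by HTRF Transcreener (665/615 nm ratio) after 30 min at 37 deg C with 10 uM ATP. Compounds screened at one 76 uM concentration against 40 or 20 nM TRiC in Tris pH 7.4/KCl/MgCl2/DTT buffer.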
# EPAC1 agonist: qHTS for Agonist of cAMP-regulated guanine nucleotide exchange factor 3 (EPAC1): primary screen. EPAC1 agonist qHTS, biochemical assay; response scale: 100% = response to 6.5 mM cAMP. AID 720707, 2013. Potency, µM (doses to about 154 µM), for inactives: top-dose activation, actives largely listed as activators. actives 0.073% (n = 360,000). Rap guanine nucleotide exchange factor 3 (Homo sapiens), O95398; further: potency means the concentration at half of the fitted maximal effect; nearly all actives have a fitted effect of over 60% in size
#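 Nucleotide exchange by EPAC1 (100 nM) on Rap1B–BODIPY-GDP (250 nM) in the presence of 50 uM GDP is tracked fluorescently at 480/540 nm over 30 min. Signals are normalized to a 6.5 mM cAMP control.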
# EPAC1 antag: qHTS for Antagonist of cAMP-regulated guanine nucleotide exchange factor 3 (EPAC1): primary screen; EPAC1 GEF assay, Rap1b-BODIPY-GDP exchange fluorescence; Potency, µM (doses to about 115 µM), for inactives: at the highest dose activity change, negative = inhibition, usual class: inhibitors; actives 0.14% (n = 360,000);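 further: potency means the concentration at half of the fitted maximal effect; plate controls were vehicle for no effect and positive control for full effect; nearly all actives have a fitted effect of over 50% in size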
# An asterisk follows results filed as active; u = inconclusive; x = not tested or not shown. Unless noted, the call rests on the fitted dose curve; in most records, active means well fitted curve in the direction sought with a large enough effect; inconclusive means small, poorly fitted or top-dose-only effect, or another doubt; inactive means no such curve, though single readings can be large; an effect the other way counts as inactive or inconclusive. Some of the compounds tested; rates above refer to the full screens.
# Every second line gives: PLK1 PBD block | PI5P4K alpha inh | Mm-Cpn inhibitor | CCT chaperon mod | EPAC1 agonist | EPAC1 antag
> COc1ccc(-c2nnc(SCCC(=O)O)n2C)cc1OC
  -9.4% | 0.8 | -3.1% | 2.5 | -4.7% | -1.4%
> O=C(/C=C/NNC(=O)c1cccc(Br)c1)c1cccc(Br)c1
  -4.7% | x | -20.1% | -3.1 | 14.8% | -0.8%
> COc1ccc(S(=O)(=O)N(CCCN2CCOCC2)Cc2cccc3ccccc23)cc1
  -8.3% | 12.9 | 1.7% | -1.8 | 11.1% | -26.9%
> Cc1ccc(NC(=O)N2CCCC2C(=O)Nc2c(C)cc(C)cc2C)cc1 (centres undefined)
  2.8% | 0.4 | 1.3% | -0.6 | -3.9% | -11.3%
> CN1CCNC(=O)C1CC(=O)NCCc1ccccc1F (centres undefined)
  -5.5% | 2.4 | 0.8% | 0.0 | 4.3% | 5.5%
> Cc1cc(=O)oc(C)c1C(=O)N[C@@H]1CCCCNC1=O
  -7.5% | -1.2 | 1.1% | -0.9 | -3.2% | 23.0%
> Cc1nn(-c2ccccc2)c2[nH]c(=O)c(CNCC3CCCO3)cc12 (centres undefined)
  -17.4% | -0.2 | -12.1% | -2.0 | 7.0% | 3.8%
> COc1ccc(C2CC(=O)NC3=C2C(=O)CCC3)cc1Cl (centres undefined)
  -4.4% | 2.6 | -0.2% | 0.7 | -1.7% | -12.8%
> CC(=O)NS(=O)(=O)c1cccnc1Nc1cccc(Cl)c1C
  0.1% | -2.9 | 1.5% | -1.4 | -3.1% | 5.1%
> CCOc1ccccc1NC(=O)CSc1nnc(C2CC2)n1CC
  1.7% | -3.4 | 2.3% | -0.3 | -3.5% | 9.4%
> Cc1ccc2c(CC(=O)NNC(=O)c3ccncc3)coc2c1
  -9.0% | -21.9 | -23.3% | -0.4 | 9.5% | -11.3%
> Nc1cc(=O)nc(SCC(=O)Nc2ccccc2Cl)n1-c1ccccc1
  -8.5% | -5.5 | 0.3% | -1.4 | 2.0% | -22.4%
> C/C(=N\NC(=O)c1ccc(NS(=O)(=O)c2cccs2)cc1)c1ccc(Cl)cc1
  -2.1% | -58.7* | 0.1% | -2.1 | -19.2% | -2.4%
> O=C(/C=C/NNC(=O)c1cccc(Br)c1)c1ccccc1
  -5.8% | 0.3 | -0.1% | -1.0 | -2.6% | -7.5%
> c1ccc(-c2cnc(-c3cccnc3)o2)cc1
  u | 3.4 | -4.2% | -1.4 | 4.2% | -12.1%
> COc1ccc(C2=NCCn3c2c2ccc(C(F)(F)F)cc2[n+]3[O-])cc1
  -5.8% | -1.9 | -0.1% | -0.6 | -1.9% | 1.0%
> Cc1[nH]c2ccccc2c1C(=O)C(=O)N1CCN(c2ccccc2Cl)CC1
  -7.9% | 3.4 | 1.7% | -4.4 | 10.9% | u
> Cc1cc(C)c2c(CC(=O)NNC(=O)c3ccccc3)coc2c1
  -4.8% | 3.5 | 0.5% | 0.2 | 14.3% | -19.4%
> COc1cc2c(cc1OC)-c1cc(N3CCCCCC3)nc(=O)n1CC2
  -7.4% | x | -0.4% | -1.0 | 1.9% | -10.2%
> CCN1CCCC1CNC(=O)c1cc(S(=O)(=O)N(C)C)ccc1Cl (centres undefined)
  1.6% | 2.8 | 0.5% | -4.7 | -3.8% | 6.6%
> C/C(CC(=O)NCc1ccc(Cl)cc1)=N\NC(=O)COc1ccc(C)cc1Br
  -7.3% | 1.6 | -3.4% | -1.0 | 12.1% | 8.5%
> C/C(=N\NC(=O)c1ccc(NS(=O)(=O)c2cccs2)cc1)c1cccs1
  -1.2% | -55.9* | 0.3% | -1.3 | -1.0% | 3.8%
> CCOCCCNC(=O)NC12CC3CC(CC(C3)C1)C2
  -9.5% | x | 2.0% | -2.0 | -2.4% | -4.3%
> O=C(Cn1cnc2sc3c(c2c1=O)CCCC3)NCC(=O)Nc1c(F)cccc1F
  33.6µM* | 1.4 | 0.4% | 0.6 | -3.3% | -3.5%
> CC1CCCN(C2(O)C(=O)Nc3ccc(Br)cc32)C1 (centres undefined)
  -8.8% | -5.7 | -0.3% | -2.9 | -6.0% | -2.0%
> COc1ccc(OC)c(CN(CCCN2CCOCC2)S(=O)(=O)c2ccc(NC(C)=O)cc2)c1
  -3.1% | -1.7 | -0.5% | 0.9 | 0.5% | 5.2%
> C[C@H](NC(=O)c1nc[nH]c1C(=O)N(C)Cc1ccccc1)C(=O)OC(C)(C)C
  -2.0% | -1.5 | 0.7% | 2.1 | 1.8% | -7.1%
> O=[N+]([O-])c1ccc(S(=O)(=O)Nc2nc3ccccc3nc2Nc2ccccc2)cc1
  -6.7% | -1.5 | -4.6% | 0.1 | 6.2% | -12.7%
> O=C(CCc1ccccc1)NCCSc1ccccc1
  -6.0% | -1.7 | -0.2% | 0.5 | 4.7% | 0.2%
> CCN1CCN(c2cc(-c3ccccc3)nc3cc(-c4cccc(F)c4)nn23)CC1
  -2.7% | 17.9 | -8.0% | 1.1 | 9.6% | -13.4%
> Cc1cccc2c1NC(=O)C2(O)N1CCCC(C)C1 (centres undefined)
  7.6% | -5.5 | -5.5% | -0.5 | 4.3% | -21.1%
> O=C(Nc1ccc2oc(=O)ccc2c1)c1ccc(-c2ccccc2[N+](=O)[O-])o1
  4.5% | 10.9 | -1.5% | 2.5 | 4.4% | u
> Brc1ccccc1-c1nnc(SCc2nc3ccccc3s2)o1
  -13.8% | 4.9 | -10.4% | -2.3 | u | -6.6%
> O=C(Cn1cnc2sc3c(c2c1=O)CCCC3)NCC(=O)Nc1c(F)cc(F)cc1Br
  29.9µM* | -5.9 | -0.7% | -1.1 | 0.6% | -2.1%
> Cc1ccc(NC2SC(=O)N(CC(=O)O)C2=O)cc1 (centres undefined)
  -8.0% | x | 0.9% | 2.4 | 0.8% | -1.5%
> Cc1ccc(C(=O)C=CNNC(=O)c2ccccc2)cc1
  -16.4% | -1.2 | -0.1% | 0.3 | 5.3% | -19.0%
> CC(=O)Nc1nnc(CCN2CCCCC2)s1
  -4.0% | x | -1.9% | -2.7 | 6.4% | -0.8%
> O=C(Nc1ccncc1)c1ccccc1F
  26.7µM* | -11.4 | 1.1% | -1.0 | 0.8% | 5.7%
> C[C@@H](NC(=O)c1nc[nH]c1C(=O)NC1CCN(C(=O)OC(C)(C)C)CC1)c1ccccc1
  -6.3% | 5.3 | 2.3% | -0.7 | -6.5% | -3.5%
> COc1ccccc1-n1c(-c2ccc(NS(C)(=O)=O)cc2)n[nH]c1=S
  -6.5% | x | -0.8% | -1.2 | 7.0% | 5.4%

# Among those listed so far, these have a nitro group on carbon.
# Every second line gives: PLK1 PBD block | PI5P4K alpha inh | Mm-Cpn inhibitor | CCT chaperon mod | EPAC1 agonist | EPAC1 antag
> O=[N+]([O-])c1ccc(S(=O)(=O)Nc2nc3ccccc3nc2Nc2ccccc2)cc1
  -6.7% | -1.5 | -4.6% | 0.1 | 6.2% | -12.7%
> O=C(Nc1ccc2oc(=O)ccc2c1)c1ccc(-c2ccccc2[N+](=O)[O-])o1
  4.5% | 10.9 | -1.5% | 2.5 | 4.4% | u

# (continued)
structure	PLK1 PBD block	PI5P4K alpha inh	Mm-Cpn inhibitor	CCT chaperon mod	EPAC1 agonist	EPAC1 antag
C=CCSc1n[nH]c(-c2cccs2)n1	-17.0%	0.0	2.9%	-1.0	7.8%	-27.4%
CCCCN(C)C(=O)c1ccc(Nc2nc(C(N)CCc3ccccc3)cs2)nc1 (centres undefined)	-8.9%	-10.1	x	-2.5	-8.0%	-12.7%
CC1CCN(C2(O)C(=O)Nc3ccc(Br)cc32)CC1 (centres undefined)	-9.4%	-1.6	-1.6%	-2.2	4.7%	-0.7%
CC1(C)Cc2ccccc2C(/C(=N/O)C(N)=O)=N1	-7.0%	x	-1.0%	2.2	2.7%	16.4%
COc1cc(OC)cc(C(=O)N[C@H](C(=O)OCC(=O)c2ccc3c(c2)NC(=O)CO3)C(C)C)c1	-12.2%	x	-8.9%	0.3	20.5%	0.3%
CC(C)C[C@H](NC(=O)c1[nH]cnc1C(=O)N[C@@H](C)C(=O)OCc1ccccc1)C(=O)OC(C)(C)C	-8.9%	13.9	0.3%	-1.0	-25.2%	-24.5%
O=CC1=C(N2CCOCC2)/C(=C/c2ccc(Cl)cc2)CC1	u	-2.7	1.0%	1.4	-13.5%	8.7%
Cc1nc(SCC(=O)N2CCNC2=O)c2ccccc2n1	0.3%	-2.9	-14.1%	-4.7	10.2%	0.0%
CC1CCN(C2(O)C(=O)Nc3ccc(Cl)cc32)CC1 (centres undefined)	-6.2%	2.9	2.7%	-0.6	-5.1%	-15.7%
Cc1cc(OCc2nc(-c3ccc(NC(=O)c4cccnc4)cc3)no2)ccc1Cl	-2.2%	x	-0.4%	-0.9	2.2%	6.1%
O=C(NCc1ccco1)C1(S(=O)(=O)c2ccccc2)CC=CC1	-4.5%	-0.2	-0.6%	-2.5	-0.5%	-4.1%
COc1ccc(OC)c(-n2c(-c3cc(-c4ccc(F)cc4)n[nH]3)n[nH]c2=S)c1	-12.6%	-17.9	-0.6%	-0.9	-0.7%	-2.9%
COC(=O)c1cc(NC(=O)c2c(Cl)cnn2C)cc(C(=O)OC)c1	-11.0%	9.4	0.3%	-0.5	-7.5%	-19.0%
Cc1nc2ccc(C(=O)O)cc2nc1C	1.1%	-7.6	-0.8%	-0.3	-1.7%	3.2%
CC1CCN(CCCNC(=O)CCCNC(=O)Cn2cnc3sc4c(c3c2=O)CCCC4)CC1	-10.3%	x	-0.1%	-2.2	8.6%	-0.9%
O=C(OC1CCOC1=O)c1cccc(S(=O)(=O)Nc2cccc(Cl)c2)c1 (centres undefined)	2.3%	-17.5	1.3%	0.2	3.6%	4.5%

# Three structures already listed, arranged by length of the SMILES, rising:
structure	PLK1 PBD block	PI5P4K alpha inh	Mm-Cpn inhibitor	CCT chaperon mod	EPAC1 agonist	EPAC1 antag
Cc1nc2ccc(C(=O)O)cc2nc1C	1.1%	-7.6	-0.8%	-0.3	-1.7%	3.2%
Cc1cccc2c1NC(=O)C2(O)N1CCCC(C)C1 (centres undefined)	7.6%	-5.5	-5.5%	-0.5	4.3%	-21.1%
COC(=O)c1cc(NC(=O)c2c(Cl)cnn2C)cc(C(=O)OC)c1	-11.0%	9.4	0.3%	-0.5	-7.5%	-19.0%

# Further results follow:
structure	PLK1 PBD block	PI5P4K alpha inh	Mm-Cpn inhibitor	CCT chaperon mod	EPAC1 agonist	EPAC1 antag
CCc1ccc(NCc2cc3c(C)nn(-c4ccccc4)c3[nH]c2=O)cc1	-3.6%	x	-4.0%	2.3	22.9%	-6.1%
N#CC(c1ccccn1)(c1ncc(C(F)(F)F)cc1Cl)N1CCOCC1 (centres undefined)	-10.8%	x	-1.9%	-1.0	13.2%	-2.2%
O=C(NC1CCC(O)CC1)c1cccnc1Sc1ccccc1Cl (centres undefined)	-14.7%	-7.8	-1.0%	-1.9	-21.0%	16.7%
CCN1CCCC1CNS(=O)(=O)c1ccc(F)c(Cl)c1 (centres undefined)	3.4%	0.3	-0.5%	-0.7	4.4%	-8.2%
